# Bioassay records from PubChem BioAssay.
# LANA-H2A inh: blockers of LANA interaction with H2A/H2B – biochemical, FP readout, HTS, primary screen; Protein LANA1 (Human herpesvirus 8 type P (isolate GK18)), Q9QR71; cell-free LANA-H2A/H2B peptide, fluorescence polarization; inhibition, % (no concentration beside the values); actives 0.6% (n = 320,000); AID 2629, 2010; in the data active = inhibition mostly above about 10%, no sharp cut-off; inactive = mostly below about 6.7%;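 note: stock transfer was 7.5 nL into about 10 µL; 0% = median of vehicle wells and 100% = median of positive control wells; one replicate is shown; the record names a cut of 25% in any replicate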
# Beta2AR agonist: beta2AR agonists driving receptor internalization, primary screen, cell-based, FAP fluorogen, flow cytometry; Am2.2-beta2AR cells; reference of the scale not given here; AID 504454, 2011; actives 0.43% (n = 340,000); response, % (no concentration beside the values); Beta-2 adrenergic receptor (Homo sapiens), P07550;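 active = response above a set limit, near 3 SD of response in nonfluorescent compounds, cut at about 42% in these data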;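 note: stock transfer was 100 nL into about 11 µL; a reference agonist was the positive control; negative values mostly stem from fluorescent compounds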
# Target sequence (P07550 whole entry, looked up): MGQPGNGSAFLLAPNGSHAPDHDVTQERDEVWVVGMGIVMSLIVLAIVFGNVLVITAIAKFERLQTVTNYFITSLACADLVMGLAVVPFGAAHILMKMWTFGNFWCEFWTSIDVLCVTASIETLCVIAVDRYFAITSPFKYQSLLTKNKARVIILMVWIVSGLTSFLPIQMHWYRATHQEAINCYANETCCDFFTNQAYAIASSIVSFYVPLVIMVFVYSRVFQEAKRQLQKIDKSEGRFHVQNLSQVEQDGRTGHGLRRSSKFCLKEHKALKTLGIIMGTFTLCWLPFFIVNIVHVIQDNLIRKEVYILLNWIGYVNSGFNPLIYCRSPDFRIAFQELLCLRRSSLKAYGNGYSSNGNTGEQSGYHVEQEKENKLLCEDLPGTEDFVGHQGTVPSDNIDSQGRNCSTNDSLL
# UCH37 inh: inhibitors of human UCH37 deubiquitinase, primary screen, biochemical, Ub-AMC cleavage, fluorescence; Ubiquitin carboxyl-terminal hydrolase isozyme L5 (Homo sapiens), Q9Y5K5; purified proteasome/UCH37; inhibition, % (test concentration not listed); actives 0.33% (n = 330,000); AID 588478, 2011;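 active = mean of two replicates above 20%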;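 note: 0% = compound-free wells with enzyme and 100% = wells lacking proteasome; stock transfer was 100 nL into about 20 µL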
# Target sequence (Q9Y5K5 whole entry, looked up): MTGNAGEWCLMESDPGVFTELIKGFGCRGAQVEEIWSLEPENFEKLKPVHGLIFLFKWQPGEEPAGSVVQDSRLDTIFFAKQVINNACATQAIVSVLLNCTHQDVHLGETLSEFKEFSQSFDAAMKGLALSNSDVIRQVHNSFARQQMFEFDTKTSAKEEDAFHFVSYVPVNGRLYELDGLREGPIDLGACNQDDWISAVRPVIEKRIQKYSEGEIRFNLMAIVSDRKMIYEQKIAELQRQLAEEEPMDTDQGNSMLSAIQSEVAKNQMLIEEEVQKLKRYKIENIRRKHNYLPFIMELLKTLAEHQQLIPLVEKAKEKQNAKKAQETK
#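 Schedule: 30 min plus 25 min, room temperature / Material: human UCH37 within purified proteasomes / Technique: AMC fluorescence intensity at 355/460 nm / Buffer or medium: pH 7.4 Tris-HCl (50 mM) with ovalbumin, ATP-MgCl2, DTT / Controls: wells without proteasome as full block, compound-free enzyme plus substrate as uninhibited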
# Beta cell apopt: inhibitors of cytokine-induced beta cell apoptosis, primary screen, luminescence | INS-1E cytokine-induced death, ATP luminescence, 48 h; percent of positive-control rescue, neutral wells zero | protection from apoptosis, % (test concentration not listed) | actives 0.8% (n = 300,000) | AID 435005, 2010;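 active = all replicates at 75% or more, or half of them and the mean; inconclusive = half reach 75% but not the mean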;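 note: 0% = cytokine-treated negative control wells and 100% = positive control rescue; higher means more ATP so stronger rescue from cytokine killing; wells of about 40 µL received 100 nL stock; the first replicate is given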
# A1 inh: caspase 3/7 activation in MEF A1-2A-BIM cells, primary screen, A1 inhibitor project, cell-based, luminescence, HTS; Caspase-Glo 3/7 luminescence, 3 h; percent of clofoctol response, vehicle zero; caspase activation, % (no concentration beside the values); actives 0.066% (n = 330,000);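 active = over half of replicate activation scores above 10%, or exactly half above 10 with the replicate mean above 10; inconclusive = replicate mean below 10 yet half the replicates above 10; inactive = over half of replicates below 10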;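 note: wells of about 30 µL received 50 nL stock; many hits fall short of the cut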
# T cruzi repl: inhibitors of intracellular T. cruzi growth, primary screen, luminescence, NIH3T3 host cells. inhibition, % (no concentration beside the values). T. cruzi beta-gal in NIH3T3, 90 h. actives 1.4% (n = 300,000);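 active = mean inhibition across valid replicates above about 55%, limit read from the data; inconclusive = mean below that limit but half or more replicates reach it; inactive = mean below it, under half of replicates reach it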;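 note: signal also drops with host cell toxicity which is not excluded here; 0% = plate median of DMSO wells and 100% = zero luminescence signal; higher percent means less beta-gal luminescence so fewer parasites; stock transfer was 50 nL into about 50 µL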
# Calb FLC: C. albicans growth inhibition with fluconazole, primary screen, CaCi-2 strain, Alamar Blue fluorescence | C. albicans CaCi-2 (fluconazole-resistant clinical isolate) + fluconazole, 48 h | growth inhibition, % (test concentration not listed) | actives 0.57% (n = 300,000);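 active = most replicates above 75%; inconclusive = exactly half above 75%; inactive = most below 75%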;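 note: all wells also contain fluconazole at 8 µg/ml as a sub-toxic cotreatment; 0% = median of DMSO wells and 100% = median of geldanamycin control wells; wells of about 8 µL received 7.5 nL stock; the first replicate is given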
# RanGTP-Imp inh: inhibitors of RanGTP-importin-beta interaction, primary screen, biochemical, FRET, CFP-Ran, YFP-importin-beta, homogeneous; cell-free CFP-Ran/YFP-importin-beta FRET ratio; actives 1.1% (n = 300,000); AID 2216, 2009; inhibition, % (concentration not given with the values); Ran GTPase (GTP-bound) - importin-beta complex;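 active = most replicates above 15%; inconclusive = exactly half above 15%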;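 note: 0% = DMSO wells and 100% = Ran loaded with GDP instead of GTP; wells of about 40 µL received 100 nL stock; the first replicate is given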
# * = called active by the depositor; ? = inconclusive; · = no result given.
SMILES,LANA-H2A inh,Beta2AR agonist,UCH37 inh,Beta cell apopt,A1 inh,T cruzi repl,Calb FLC,RanGTP-Imp inh
CCCCCOP(=O)(OCCCCC)C1(NS(=O)(=O)c2ccccc2)C=CC(=O)c2ccccc21 (stereo not given),-0.4,15,-2.3,13,-0.1,4,26,4.5
O=C(c1ccccc1)c1ccc(OCCCCN2CCCCC2)cc1,1.8,-5,4.4,2,-0.6,20,-10,3.3
CCCCN(CC)CCNC(=O)c1cc2c(C)nc3ccccc3c2o1,4.8,1,-0.5,8,-0.6,19,-3,0.9
CN(CCOc1ccccc1)C(=O)C1CCN(C(=O)c2ccc(F)cc2)CC1,-1.8,-8,1.6,·,0.8,5,4,1.9
Cc1cccc(C(=O)OCC(=O)NC(=O)Cc2ccccc2)c1O,2.9,2,-3.2,-4,0.0,-14,-7,-1.0
COc1ccc(/C=C/c2c(-c3cccc(C)c3)oc3ccc(N4CCOCC4)cc23)cc1,-0.7,2,-168,1,-0.2,21,-1,0.5
O=C(NCCc1ccccc1)C1CCCN(S(=O)(=O)c2cccc3nsnc23)C1 (stereo not given),2.7,-2,6.1,·,0.2,0,3,-7.0
O=C(CN(Cc1ccc(F)cc1)S(=O)(=O)c1ccccc1)N1CCCCC1,3.1,2,0.6,0,0.4,-2,2,1.6
Cc1ccc(CNC(=O)c2ccccc2NC(=O)CSc2nnnn2C)cc1,3.3,-7,1.0,-9,1.2,-6,-2,0.0
CCOC(=O)N1CCN(S(=O)(=O)c2c(C)cc(C)cc2C)CC1,1.4,7,1.3,-1,-0.3,2,2,-2.5
O=C(CSc1nnnn1-c1ccccc1)Nc1ccc(Cl)cc1,-1.4,-6,1.6,5,0.7,5,-5,-4.3
CC(NC(=O)CN1CCN(C(=O)c2cccs2)CC1)c1ccc(F)cc1F (stereo not given),2.1,-2,3.5,-3,-1.2,·,·,·
COc1cccc(CNC(=S)Nc2cc(OC)ccc2OC)c1,-0.3,1,0.7,-2,-0.2,-2,-12,-3.9
Cc1cc(/C=C2/SC(=O)N(CC(=O)OC(C)C)C2=O)c(C)n1C,-5.4,-7,3.1,4,-1.3,-11,-23,6.5
CC1C2(C)OCC(C#N)(C(=N)O2)C1(C#N)C#N (stereo not given),0.4,·,·,-5,0.6,10,2,7.4
O=C(N/N=C\c1cccc(OC(=O)c2ccco2)c1)c1ccc2c(c1)OCO2,-1.4,-2,·,6,-1.2,1,2,1.6
O=C(N/N=C\c1cc([N+](=O)[O-])ccc1N1CCOCC1)c1ccccn1,-8.3,-10,·,2,0.3,-17,21,1.6
Oc1ccc(-c2csc(Nc3ncccn3)n2)cc1,-1.1,2,·,-12,-6.4,-24,2,5.0
COc1ccc(/C(N)=N/OC(=O)CCC2CCCC2)cc1,4.3,9,2.2,-1,-0.1,8,-1,0.9
COCCNC(=O)C(Cc1c[nH]c2ccccc12)NC(=O)OCc1ccccc1 (stereo not given),-2.4,-7,·,-4,0.4,10,13,-1.5
CCN(C(=O)CSc1nc2ccccc2c(=O)n1Cc1ccc(C)cc1)C1CCS(=O)(=O)C1 (stereo not given),5.3,-7,4.6,0,0.2,14,14,-2.3
Cc1ccc(N2C(=O)CCSC23C(=O)Nc2ccccc23)cc1 (stereo not given),2.0,6,2.6,-8,-0.4,7,43,2.4
CCC(C)(C#CCN1CCCCC1)OCCC#N (stereo not given),4.2,7,0.5,-6,-0.8,-20,8,10
COC(=O)c1cn(C(=O)c2ccco2)c2ccccc12,0.0,9,-0.6,2,0.3,·,4,-3.4
O=C(COc1coc(CN2CCc3ccccc3C2)cc1=O)Nc1cccc([N+](=O)[O-])c1,-0.9,0,2.7,·,-0.8,-5,-12,0.9
# Other entries:
SMILES,LANA-H2A inh,Beta2AR agonist,UCH37 inh,Beta cell apopt,A1 inh,T cruzi repl,Calb FLC,RanGTP-Imp inh
CCn1cc(C(=O)NCC2CCCO2)c(=O)c2cc(S(=O)(=O)N3CCC(C)CC3)ccc21 (stereo not given),-7.6,-1,3.2,3,0.3,16,1,?
COc1ccc(O)c(/C=N/NC(=O)c2ccc(CSc3nc(C)cc(C)n3)cc2)c1,0.3,-6,·,?,-0.7,41,119*,-7.6
CCOc1ccc(NC(=O)CC2C(=O)N(c3ccc(OC)cc3)C(=O)N2Cc2ccc(OC)cc2)cc1 (stereo not given),3.1,-1,1.9,-7,-0.6,-9,-4,3.1
CCc1cc(C(N)=O)c(NC(=O)c2ccc(OC)cc2)s1,1.3,-1,-44,-7,-0.3,15,56,0.9
N=c1c(C(=O)NCc2ccc3c(c2)OCO3)cc2c(=O)n3ccccc3nc2n1CC1CCCO1 (stereo not given),-2.4,4,-32,6,0.1,39,3,-13
COc1ccc(NC(=O)C2CCCNC2=O)cc1 (stereo not given),2.4,-8,6.3,-1,0.8,1,4,-0.5
Cc1cccc(C)c1NC(=O)c1ccccc1C(=O)O,5.1,4,-0.1,-2,1.2,-2,-3,-1.5
Cn1cc(C(=O)Nc2cccc(F)c2)cn1,6.1,-7,1.5,-1,1.7,0,12,2.3
O=C(O)c1ccc[n+](Cc2ccc([N+](=O)[O-])cc2)c1,-6.5,-10,2.7,-4,-0.5,-15,-8,12*
O=c1cc(N2CCCC2)c2ccccc2o1,1.5,-6,1.6,1,0.0,-9,-2,-1.7
CN(C)S(=O)(=O)c1ccc(C(=O)OCC2CCCO2)cc1 (stereo not given),6.4,9,2.6,6,1.7,-14,-7,5.9
CCOC(=O)CON1C(=O)C(C)(C)N(OCC(=O)OCC)C(=O)C1(C)C,-1.2,2,1.1,·,0.6,-6,-14,1.6
Cc1ccc(Cl)c(NC(=O)CSc2cccc[n+]2[O-])c1Cl,2.4,-5,-2.2,0,-0.7,·,·,·
Cn1c(N/N=C/c2cc3ccccc3nc2Cl)nc2ccccc21,0.9,-14,·,41,-2.9,34,4,17*
O=c1oc2cc(Br)ccc2n1CSC1=NCCS1,1.4,5,5.9,-3,0.1,·,·,·
CN(C)S(=O)(=O)c1ccc(C(=O)OCC(=O)NC(=O)NC2CCCC2)cc1,-2.1,-1,2.2,2,0.2,·,·,·
O=c1c(O)c(-c2ccc(O)cc2)oc2cc(O)cc(O)c12,5.2,7,0.2,·,0.0,-7,-4,11
COc1cccc(-n2c(SCC(=O)NC3CCCC3)nnc2-c2ccco2)c1,-7.5,-4,4.1,-10,-0.4,-9,-8,-1.7
C=CCNc1nc2c(c(=O)n(C)c(=O)n2C)n1CCCCCC,6.0,-14,0.9,·,-0.6,-23,-4,·
C=CCC(C)(NCc1ccccc1)c1ccccc1 (stereo not given),-3.6,7,2.9,-3,-1.7,13,-14,14
CCCS(=O)(=O)c1snnc1C,-0.5,-3,-1.4,0,-0.1,-14,3,3.7
Cn1c(=O)c2c(ncn2CC(=O)OCC(=O)NCc2ccc(Cl)cc2)n(C)c1=O,-8.6,12,1.6,-5,-0.6,-16,3,4.9
CCOc1ccc(-n2c(N)c(C(=O)N3CCN(C)CC3)sc2=S)cc1,-2.5,-3,2.1,-4,-0.1,-4,-36,0.8
O=C(C1CCN(Cc2cn[nH]c2-c2ccc(F)cc2F)CC1)N1CCOCC1,1.0,0,-2.3,-1,0.1,-16,11,3.8
Nc1nc(NCc2c(F)cccc2Cl)nn1-c1ccccc1,-11,-4,0.0,-2,0.4,8,6,-2.5
# Next compounds:
SMILES,LANA-H2A inh,Beta2AR agonist,UCH37 inh,Beta cell apopt,A1 inh,T cruzi repl,Calb FLC,RanGTP-Imp inh
O=C1C=C(c2cccc3c2sc2ccccc23)C[C@@H](c2ccc(F)cc2)C1,-1.5,-3,1.6,3,-0.3,·,·,·
CCOC(=O)c1[nH]ncc1CN1CCN(Cc2ccccc2)C(CCO)C1 (stereo not given),4.8,1,0.0,-4,1.1,0,-18,1.7
NNC(=O)CSc1c(-c2cccs2)[nH]c2ccccc12,2.5,0,6.5,-1,0.7,8,6,-0.5
CCC(C)(C(=O)NC1CCCCC1)N(CC1CCCO1)C(=O)Cc1cccs1 (stereo not given),-2.4,5,4.7,-7,-1.4,-7,27,-5.0
CCCCN(C(=O)c1cccc(S(=O)(=O)N2CCCC2)c1)c1c(N)n(CCC)c(=O)[nH]c1=O,·,2,2.0,0,0.9,·,·,·
COc1cc(-c2noc(C)n2)cc(OC)c1OC,0.5,1,7.5,0,0.4,5,18,3.5
Cc1c(-c2nc(N)nc(Nc3ccccc3)n2)oc2ccccc12,-1.0,-6,-0.7,-2,-1.1,36,-5,?
CC(C)(C)NC(=O)C1CCN(S(=O)(=O)c2ccc(Br)cc2)CC1,3.9,2,4.2,1,-0.1,2,-2,0.0
COc1ccccc1-c1nc(SCC(=O)N2CCC(C(N)=O)CC2)n[nH]1,·,-1,2.3,-4,-0.1,·,·,·
COc1ccc(-n2c(-c3ccco3)nc3c(cnn3-c3ccc(C)cc3)c2=O)cc1,1.7,-5,-8.0,6,0.4,30,2,2.3
O=C(Nc1ccc(Br)cn1)c1cccc(C(=O)Nc2ccc(Br)cn2)c1,1.3,12,4.4,7,-1.1,-23,0,1.0
O=C(CSCc1ccc(Cl)cc1)Nc1ccc2c(c1)OCCO2,3.5,-2,2.2,0,0.6,3,-2,?
CCOc1ccc(NC(=S)NC(=O)c2ccco2)cc1,1.5,1,7.2,5,-2.0,-4,6,3.8
CC1=C(C#N)C(Nc2cccc(C)n2)(C(F)(F)F)C(=O)N1 (stereo not given),4.7,6,2.7,-4,-0.9,-3,-18,-0.9
CC(=O)N1CCN(Cc2nc3cc(NC(=O)C4CCCCC4)ccc3n2C)CC1,2.6,-1,3.3,0,-1.1,0,14,-0.6
COc1ccc(NS(=O)(=O)c2cc(NC(=O)c3ccco3)ccc2N2CCCCC2)cc1,2.2,-3,0.7,12,-0.2,21,-3,3.7
CCOc1ccc(CNS(=O)(=O)c2c(C)nc3sccn3c2=O)cc1OC,6.3,-4,8.5,-3,0.2,-4,2,0.9
COc1ccc(CCNc2ncnc3c2oc2ccccc23)cc1OC,2.3,8,1.9,107*,-2.0,-21,38,?
CCCn1c(=O)c(C(=O)NCc2ccco2)c(O)c2ccccc21,3.3,11,-3.4,-2,-0.2,6,15,?
Cc1cccc(C(=O)N/N=C/c2ccc(OCC(=O)N3CCCCC3)cc2)c1,2.3,1,·,3,0.4,3,-11,-1.1
Cc1cc(C(=O)OCC(=O)NCc2ccc(Cl)cc2Cl)c(C)o1,1.8,2,3.1,-2,1.2,·,·,·
CC(=O)Nc1ccc(NC(=O)C2CCCCN2S(=O)(=O)c2ccc(C(C)(C)C)cc2)cc1 (stereo not given),-3.0,-13,4.4,2,0.1,-34,-15,-0.7
O=C(/C=C/c1cccs1)c1ccc(Br)cc1,-0.9,-1,1.5,-5,-0.1,·,-1,-1.0

# The order is random; about 4.3% have a hit in one of these screens.
